Screening data from PubChem.
Autofluor counter = flagged as autofluorescent in microsphere protease counterscreen. compound autofluorescence counterscreen, microsphere flow cytometry; active compounds read high. fluorescence intensity (test concentration not listed). hit rate 3.1% among 360,000. AID 624483;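 active = at least 3 SD above the mean of all compounds, about 16000 in these data; inconclusive = too few beads counted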;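 also: 100 nL of 1 mM stock went into each well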
PrP UTR inh = inhibition of PrP 5' UTR reporter expression; cell-based PrP 5' UTR mRNA reporter, plate reader; inhibition, % (no concentration beside the values); hit rate 0.35% among 340,000;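 active = every replicate at 50% or more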;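 also: 0 = median of the neutral control wells; tested in H4 reporter cells; numbers are from one replicate; inactives centre near -14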
Sa ugtP lethal = growth inhibition of S. aureus ugtP deletion strain. S. aureus RN4220 ugtP deletion, OD600 growth, 16 h; some inactives read as strong as hits. hit rate 0.54% among 330,000. growth inhibition, % (no concentration beside the values). AID 1259309;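 active = z-score under -3 and OD600 up to 0.15 on both plates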;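 also: plate controls were untreated wells for no effect and antibiotic for full effect; wells of about 80 µL received 100 nL stock; the first replicate is given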
BJeLR viability = kills HRASV12-expressing BJeLR cells. BJeLR (HRASV12) viability, CellTiter-Glo ATP luminescence, 48 h; reference of the scale not given here. inhibition, % (test concentration not listed). hit rate 0.17% among 300,000. AID 1554;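 active = replicate mean above 50%; inconclusive = above 50% but judged a plate artefact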;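 also: 50 nL library stock added to about 25 µL; numbers are from one replicate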
Sa RN4220 lethal = S. aureus RN4220 growth inhibition; hit rate 0.33% among 330,000; inhibition, % (concentration not given with the values); AID 1259311; OD600, 16 h;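 active = z-score of -3 or lower and OD600 up to 0.18 on both plates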;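 also: plate controls were untreated cells for no effect and reference antibiotic for full effect; stock transfer was 100 nL into about 80 µL; one replicate is shown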
Mtb hypoxia inh = Mtb hypoxia fluorescent reporter inhibition; M. tuberculosis hypoxia-regulated fluorescent reporter, fluorescence; fluorescence inhibition, % (test concentration not listed); hit rate 0.1% among 300,000; AID 1159583;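 active = 35 to 45% if threefold the growth effect, above 45% if 1.5-fold the growth effect; inactive = the rest, general growth blockers included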;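 also: wells of about 50 µL received 100 nL stock; 0% = vehicle wells and 100% = reference inhibitor wells; whole bacteria with a GFP reporter of the hypoxia response; strong numbers were not always called active; many hits fall short of the cut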
Mtb hypoxia inh growth = second read-out of Mtb hypoxia inh, no call of its own (marks repeat the call); growth inhibition, %; measured here: M. tuberculosis growth (absorbance);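 0% = vehicle and 100% = reference antibiotic; read after six days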
* marks the source's active call; other numbers are inactive results; ? = inconclusive; / = not tested or not shown.

SMILES | Autofluor counter | PrP UTR inh | Sa ugtP lethal | BJeLR viability | Sa RN4220 lethal | Mtb hypoxia inh | Mtb hypoxia inh growth
COc1cccc(CCNC(=O)CC2C(=O)NCCN2Cc2ccc(C)o2)c1 (stereo not given) | 5957 | -12.1 | 5.5 | 5.7 | 4.0 | -5.7 | 1.5
O=[N+]([O-])c1ccc(N2CCN(C(=S)Nc3cccc(F)c3)CC2)cc1 | 2645 | -2.7 | 1.6 | -7.2 | 0.9 | 13.7 | 2.3
CC(=O)Nc1ccc(S(=O)(=O)N2CCC(NC(=O)C(Cc3cccn3C)NC(C)=O)CC2)cc1 (stereo not given) | 2751 | 9.6 | 1.5 | / | -0.1 | / | /
O=C(OC1CCCCC1=O)c1cc(S(=O)(=O)N2CCOCC2)ccc1F (stereo not given) | 7342 | -22.8 | -2.7 | 1.1 | 4.3 | 1.6 | -3.9
O=C(CCn1c2c(c3ccccc31)CCCC2)NNC(=O)c1ccc(Cl)c([N+](=O)[O-])c1 | 2430 | -8.2 | -10.3 | -6.1 | -1.5 | -2.3 | -6.2
COc1ccc(C2CC(c3cccs3)=NN2C(=O)CCC(=O)O)cc1 (stereo not given) | 4375 | -19.4 | 6.3 | 5.9 | 1.7 | 5.2 | 3.0
CCOC(=O)C1CCN(C(=O)/C=C/c2cc(OC)c(OC)c(OC)c2)CC1 | 2642 | -31.4 | 1.3 | 1.3 | 2.3 | 0.1 | 6.6
CC(CC(=O)Nc1ccc2c(c1)OCCO2)=NNC(=O)COc1ccccc1 | / | / | 1.0 | / | 5.3 | 6.8 | 6.2
Cc1nc(-c2ccc(F)cc2)c(CC(=O)N(C)CC(=O)Nc2ccc(Cl)c(C(F)(F)F)c2)s1 | 3477 | -11.6 | -12.1 | / | -3.8 | 8.2 | 1.1
CCC(=O)Nc1sc(Cc2ccccc2)c(C)c1C(N)=O | 4278 | -2.1 | 2.4 | -0.1 | 6.9 | -2.1 | 3.6
COc1cccc(/C=C2/C(=O)NN(c3ccc(Br)cc3)C2=O)c1O | 3477 | -11.0 | -0.3 | -11.6 | 0.0 | 13.9 | 4.0
Cc1ccc(C(=O)N2CCC(C(=O)NCc3ccco3)CC2)cc1 | 6110 | -9.9 | 10.5 | -2.4 | 6.2 | 0.0 | -1.3
CCOc1cc(/C=N\NC(=O)c2ccc(NC(=O)C(C)(C)C)cc2)ccc1OC(=O)c1cccc(C)c1 | 4201 | -31.0 | / | 5.3 | / | / | /
CCn1nnnc1SCC(=O)Nc1ccc(OCc2ccccc2)cc1 | 4277 | -3.9 | 3.1 | / | 1.2 | / | /
O=C(O)c1cccc(-n2cccc2/C=C/[N+](=O)[O-])c1 | 4211 | -5.3 | 15.7 | 9.3 | 9.3 | -0.3 | 9.2
CCOC(=O)c1c(NC(=O)CN2C(=O)NC3(CCC(C)CC3)C2=O)sc(C(=O)N(C)C)c1C (stereo not given) | 6166 | -19.2 | -0.3 | 4.1 | 0.9 | -2.8 | 3.9
Cc1ccc(NC(=O)COc2coc(CN3CCc4ccccc43)cc2=O)cc1Cl | 5250 | -4.8 | -4.7 | -9.1 | 0.9 | 12.9 | -3.4
CSc1ccc(C(=O)C2CCCN(C(=O)Cc3nonc3C)C2)cc1 (stereo not given) | 2692 | -30.4 | 2.8 | -1.0 | 2.8 | -5.0 | 5.0
Cn1c(SCc2nc(-c3ccc(Br)cc3)no2)nnc1-c1ccco1 | ? | -21.6 | 0.6 | -6.0 | 8.3 | 2.2 | 16.7
CCc1ccc2oc(C(=O)Nc3cccnc3)c(C)c2c1 | 3154 | -87.8 | -9.1 | 6.1 | -0.8 | -0.1 | -17.9
CCc1ccc(NC(=O)CCn2c(=O)oc3ccccc32)cc1 | 9173 | -6.4 | 10.9 | -17.0 | 2.8 | 1.3 | 2.2
Oc1ccccc1C1=Nc2nc3ccccc3n2C(c2ccccc2)C1 (stereo not given) | 5795 | -39.4 | 66.8 | -7.7 | 71.7 | / | /
N#C/C(=C\c1cccnc1)c1ccccc1[N+](=O)[O-] | 4467 | -11.7 | 6.7 | 1.0 | 2.7 | 4.8 | 1.6
COc1ccc(CC(=O)NCc2n[nH]c(=S)n2-c2ccccc2OC)cc1 | 3867 | -18.5 | 5.8 | 6.2 | -0.5 | 12.3 | 3.9
CCOC(=O)C1=CC[C@H]2c3c(c4ccccc4n3C)C(=O)C1N2C | 3590 | -12.4 | -1.7 | / | -14.8 | 6.9 | 1.9
O=C(CCc1ccccc1)Nc1ccc2c(c1)OCO2 | 3770 | -26.5 | 1.5 | 14.1 | -1.3 | 0.3 | -4.4
COc1ccc(Cc2cc(NCc3ccccc3)c3ncn(C(C)C)c3c2)cc1 | 3928 | 9.9 | 8.6 | / | -1.8 | 7.8 | 9.4
Cc1nc2c(C)cccc2cc1C(=O)NN=Cc1ccc(O)cc1 | / | / | -1.5 | / | 5.2 | 14.4 | 3.2
O=C(O)COc1ccc(Cl)cc1CO | / | / | -4.7 | 1.7 | -3.4 | -5.7 | 4.6
CC1(C)Cc2c(sc3nnn(Cc4ccccc4)c(=O)c23)CO1 | 2485 | -31.7 | 3.2 | 18.1 | 0.6 | / | /
O=C(CSCc1c(F)cccc1Cl)NCC1CCCO1 (stereo not given) | 11504 | -26.0 | 3.2 | -3.1 | 0.4 | 4.1 | 5.5
Cc1cccc(NNC(N)=S)c1C | 4071 | -15.2 | -2.9 | 0.7 | 2.9 | 23.1 | 8.9
COCc1cc(C)nc(SCc2ccc(Br)cc2)c1C#N | 5446 | -16.7 | -1.8 | -7.7 | 4.5 | -1.1 | 1.0
CC(C)(C)C(=O)Nc1cccc(-c2ncon2)c1 | 4122 | -29.0 | -7.8 | -2.5 | -2.6 | -6.9 | -4.1
CCCCC(=O)Nc1ccc(N2CCN(C(=O)c3ccco3)CC2)cc1 | 4535 | -3.4 | 7.0 | -11.9 | 0.8 | 8.9 | -5.8
Cc1ccc(-n2nc(C)c(C(C)(O)C(F)(F)F)c2N)cc1 (stereo not given) | 2571 | -2.6 | 14.6 | 2.2 | 3.1 | 7.1 | 4.2
COc1ccc2[nH]c(=O)c(CN(C(C)=O)c3ccc(C)cc3C)cc2c1 | 4119 | -59.5 | 7.4 | 2.9 | 3.7 | -3.3 | -0.6
CCC(=O)Nc1cccc(NC(=O)CSc2nnc(C(C)C)n2CC)c1 | 4568 | -5.0 | 4.8 | 6.9 | 7.7 | / | /
COc1c(N2CCN(C(=S)Nc3ccccc3F)C(C)C2)c(F)cc2c(=O)c(C(=O)O)cn(C3CC3)c12 (stereo not given) | 4914 | -18.4 | 100.2* | -1.3 | 99.8* | / | /
N#CCCN(Cc1cccnc1)C(=S)NCc1ccco1 | 5246 | -5.1 | 4.8 | -1.6 | 6.3 | 3.9 | 2.5
CNS(=O)(=O)c1cccc(C(=O)OCC(=O)c2cc3ccccc3o2)c1 | 4096 | -22.8 | 5.8 | / | -4.0 | 7.0 | 2.9
CSc1cnc2c(=O)[nH]c(=O)n(C)c2n1 | 2143 | -25.2 | 3.7 | -0.8 | 0.5 | 1.8 | 13.4
O=C(OCC(=O)c1c[nH]c2ccccc12)c1cccc([N+](=O)[O-])c1 | 5658 | -17.0 | -4.5 | / | 3.3 | -4.3 | -1.2
O=C(C[n+]1ccc(C(=O)NCc2ccccc2)cc1)c1ccc(Cl)cc1 | 4156 | -18.6 | 14.2 | -8.7 | 5.0 | 8.8 | 1.5
CN(Cc1ccccc1)S(=O)(=O)c1ccc(S(=O)(=O)N(Cc2ccc(F)cc2)C2CCCC2)cc1 | 10545 | -25.8 | 7.9 | -3.5 | 3.2 | 6.2 | 2.6
NCC(=O)NCC(=O)NC[C@H]1O[C@@H](n2cnc3c(N)ncnc32)[C@H](O)[C@@H]1O | 3878 | -24.0 | 6.9 | / | 3.2 | -10.9 | -0.8
N#CC(C#N)=Cc1cc2ccccc2nc1N1CCOCC1 | 2752 | -33.6 | 0.7 | 5.1 | 2.5 | -10.1 | -13.1
Cc1ccc(NC(=O)C/C(N)=N/O)cc1Cl | 5508 | -20.2 | -1.8 | -8.8 | 3.5 | 5.5 | 13.0

Just Autofluor counter, Sa RN4220 lethal and Sa ugtP lethal, for four of the compounds above:
Structure | Autofluor counter | Sa RN4220 lethal | Sa ugtP lethal
N#CCCN(Cc1cccnc1)C(=S)NCc1ccco1 | 5246 | 6.3 | 4.8
CNS(=O)(=O)c1cccc(C(=O)OCC(=O)c2cc3ccccc3o2)c1 | 4096 | -4.0 | 5.8
CSc1cnc2c(=O)[nH]c(=O)n(C)c2n1 | 2143 | 0.5 | 3.7
O=C(OCC(=O)c1c[nH]c2ccccc12)c1cccc([N+](=O)[O-])c1 | 5658 | 3.3 | -4.5

(further entries)
SMILES | Autofluor counter | PrP UTR inh | Sa ugtP lethal | BJeLR viability | Sa RN4220 lethal | Mtb hypoxia inh | Mtb hypoxia inh growth
N#Cc1ccc(-c2csc(NC(=O)C3CC3)n2)cc1 | 4475 | -9.7 | -1.2 | 4.9 | 4.8 | 12.1 | 6.1
CC(=O)Nc1ccc(NC(=O)C(=O)NCC(c2ccco2)N2CCc3ccccc3C2)cc1 (stereo not given) | 5939 | -18.0 | 7.5 | -4.3 | -0.4 | 7.8 | 1.5
CCOc1ccc(NC(=O)CCN2C(=O)c3cccc([N+](=O)[O-])c3C2=O)cc1 | 4111 | -4.8 | 0.8 | 8.7 | 0.5 | 2.0 | 14.9
COc1cc2c(cc1OC)CN(C(=O)c1ccc([N+](=O)[O-])o1)CC2 | 3770 | 9.4 | 17.0 | -5.3 | 18.0 | / | /
CCOC(=O)CNC(=O)CSc1ncnc2c1cnn2Cc1ccccc1 | 4234 | -13.6 | 4.6 | 10.5 | -2.6 | / | /
Nc1nonc1-n1nnc(C(=O)NN=Cc2ccc(Br)cc2)c1CN1CCOCC1 | / | / | -1.4 | / | -2.3 | -7.0 | 0.9
Cc1cccc(CN(C(=S)Nc2c(C)cccc2C)c2cccnc2)c1 | 3304 | -4.4 | 5.0 | 3.2 | 5.3 | -3.9 | 1.5
O=C(c1ccccc1F)N1C[C@H]2C[C@@H](C1)c1cccc(=O)n1C2 | 4927 | -48.8 | -5.9 | -8.5 | -0.6 | / | /
C=CCSc1nc2ccccc2c(=O)n1Cc1ccccc1 | 2078 | -1.6 | 63.6 | 0.9 | -10.9 | 9.9 | 7.4
CS(=O)(=O)N1CCN(c2ccc(NC(=O)COc3ccccc3)cc2)CC1 | 4413 | -31.1 | 1.2 | 1.6 | 1.9 | 4.7 | -0.1
Nc1c(C(=O)c2ccccc2)oc2ccccc12 | 3626 | -19.4 | 2.3 | -2.3 | 4.0 | -2.9 | 0.8
CC(C(=O)N1CCCCCC1)N(c1ccc(Cl)cc1)S(C)(=O)=O (stereo not given) | 3793 | -12.1 | 14.5 | -18.6 | 2.8 | -6.8 | 4.0
CC(=O)N=c1sc(C(C)(C)C)c(C)n1C | 3376 | -26.8 | 2.2 | -0.8 | -9.1 | 20.7 | 4.3
COc1ccc2oc(=N)c(C(=O)Nc3ccc(F)cc3)cc2c1 | 4070 | -38.4 | 5.6 | 4.0 | 2.8 | 10.0 | -6.8
COc1cc(C2CC(=O)c3cnc(NC(=O)COc4ccccc4)nc3C2)cc(OC)c1OC (stereo not given) | 21520* | -25.1 | 0.1 | 3.3 | 3.0 | 3.4 | 8.2
Cc1ccc(NC(=O)CN2C(=O)NC(C)(CC(C)C)C2=O)c(Br)c1 (stereo not given) | 3695 | -5.5 | -4.1 | / | -1.2 | 10.1 | -0.3
Brc1ccccc1OCCCN1CCCC1 | 3838 | -52.9 | 7.6 | 2.2 | 5.1 | 20.2 | 13.3
COc1ccc(C=Nn2c(C)cc(C)c(C(N)=O)c2=O)cc1 | / | / | 3.9 | / | 3.5 | 12.4 | 7.0
COc1ccc(OC)c(N(CC(=O)NCCc2ccc(OC)c(OC)c2)S(=O)(=O)c2ccccc2)c1 | 5964 | -13.4 | 2.0 | -2.3 | 2.2 | -6.1 | 9.1
CN1CCN(CCC(=O)N/N=C/c2cc([N+](=O)[O-])ccc2OC(F)F)CC1 | 4455 | -27.1 | / | 7.5 | / | / | /
CSC(=C[N+](=O)[O-])Nc1ccc(F)cc1 | / | / | 6.2 | / | 8.2 | 7.6 | 9.7
CCN1CCN(C(=O)C2CC(c3ccc(F)cc3)=NO2)CC1 (stereo not given) | 5701 | -13.4 | -3.1 | -0.3 | 2.4 | / | /
